# High-throughput results as filed in PubChem BioAssay.
# Vaccinia Venus: inhibitors of vaccinia virus (Venus reporter) | 330,000 tested, 0.46% active | Vaccinia virus Venus reporter expression, fluorescence | Potency, µM (top dose mostly 36.5 µM), for inactives: at the top dose activity change, negative = inhibition, most hits filed as inhibitors; active means well fitted inhibition curve with a large enough effect; inconclusive means small, poorly fitted or top-dose-only effect; inactive means no such curve, though single readings can be large or run the other way; tested in A549 cells; note: nearly all actives have a fitted effect of over 30% in size; inactives centre near -10
# VACV mCherry inh: vaccinia inhibition (mCherry reporter); 310,000 tested, 0.63% active; Potency, µM (series often up to 36.5 µM), for inactives: at the highest dose activity change, negative = inhibition, actives largely listed as inhibitors; Vaccinia virus mCherry reporter infection, fluorescence; about a quarter of the inactives have no number; active = well fitted inhibition curve with a large enough effect; inconclusive = small, poorly fitted or top-dose-only effect; inactive = no such curve, though single readings can be large or run the other way; tested in A549 cells; note: nearly all actives have a fitted effect of over 35% in size; inactives centre near -10
# Active calls of the source: *; i = inactive; u = inconclusive; x = no result given; & = joins results of further samples; [ ] = dose if it differs, or a comment. % is set by controls: 0 for no effect and ±100 for the full control effect; potency is the fitted concentration of half-maximal effect. No enrichment for hits; about 0.82% have a hit in one of these screens.
# The line under a structure holds: Vaccinia Venus | VACV mCherry inh
> CCOc1ccccc1C1NC(=O)NC(C)=C1C(=O)OCc1ccco1 (stereo not given)
 : -18% | -15%
> CC1(C)CC(NC(=O)C2CCC(=O)N(Cc3ccccc3F)C2)CC(C)(C)C1 (stereo not given)
 : -19% | u
> CCOC(=O)c1nnn(CC(=O)NC(=O)Nc2cccc(CC)c2)c1C(=O)OCC
 : -6% | -3%
> CN1C(=O)N(C)C(NC(=O)Nc2ccccc2)C1NC(=O)Nc1ccccc1 (stereo not given)
 : -16% | x
> Cc1ccc(S(=O)(=O)CCC(=O)Nc2nc(-c3cccnc3)cs2)cc1
 : -16% | -14%
> CCc1ccc(N2CC(C(=O)Nc3ccc(S(=O)(=O)N4CCOCC4)cc3)CC2=O)cc1 (stereo not given)
 : -25% | -14%
> O=C1C(=C2CCc3ccccc32)Cc2ccccc21
 : 0% | i
> COc1ccc2c(c1)CCc1c(C(=O)Nc3c(C)nn(Cc4c(Cl)cccc4Cl)c3C)noc1-2
 : -14% | -15%
> O=C(OCc1ccccc1F)c1cc([N+](=O)[O-])ccc1N1CCOCC1
 : -19% | -29%
> COc1ccc(Cn2nnnc2C(c2cccs2)N2CCSCC2)cc1 (stereo not given)
 : -9% | -20%
> COc1ccc(-c2[nH]ncc2/C=C(\C#N)C(=O)NC2CC2)cc1
 : -11% | -16%
> Cc1ccc(C2CC2/C(=N/O)c2ccc(F)cc2)cc1 (stereo not given)
 : -6% | u
> CSC1=N/C(=C\c2cccnc2)C(=O)N1c1ccccc1
 : -14% | -21%
> C=CCn1c(=S)[nH]c2scc(-c3ccco3)c2c1=O
 : -4% | -15%
> COCCCn1c(=O)c2sccc2n2c(CCCC(=O)NCC3CCCO3)nnc12 (stereo not given)
 : -4% | i
> CCOC(=O)c1[nH]c(C)c(/C=N/O)c1C
 : -15% | x
> N=c1n(CCN2CCCCC2)c2ccccc2n1CC(O)COc1ccc(Cl)cc1Cl (stereo not given)
 : -8%[7.34 µM] | -12%[7.34 µM]
> COc1ccc(CN2CCN(C(=O)CC(C)C)CC2)c2ccccc12
 : -15% | -17%
> Cc1ccccc1C1c2[nH]c3ccccc3c2C[C@H]2C(=O)N(C3CC3)CC(=O)N12 (stereo not given in full)
 : -14% | -17%
> CCCCOc1cccc(C(=O)Nc2cc(NC(=O)c3ccco3)ccc2OC)c1
 : -6% | -3%

# Seven successive records out of the list so far, for reference:
# The line under a structure holds: Vaccinia Venus | VACV mCherry inh
> COc1ccc(-c2[nH]ncc2/C=C(\C#N)C(=O)NC2CC2)cc1
 : -11% | -16%
> Cc1ccc(C2CC2/C(=N/O)c2ccc(F)cc2)cc1 (stereo not given)
 : -6% | u
> CSC1=N/C(=C\c2cccnc2)C(=O)N1c1ccccc1
 : -14% | -21%
> C=CCn1c(=S)[nH]c2scc(-c3ccco3)c2c1=O
 : -4% | -15%
> COCCCn1c(=O)c2sccc2n2c(CCCC(=O)NCC3CCCO3)nnc12 (stereo not given)
 : -4% | i
> CCOC(=O)c1[nH]c(C)c(/C=N/O)c1C
 : -15% | x
> N=c1n(CCN2CCCCC2)c2ccccc2n1CC(O)COc1ccc(Cl)cc1Cl (stereo not given)
 : -8%[7.34 µM] | -12%[7.34 µM]

# (continued)
# The line under a structure holds: Vaccinia Venus | VACV mCherry inh
> CC(NC(=O)OCc1ccccc1)C(=O)OCN1C(=O)c2ccccc2C1=O (stereo not given)
 : -10% | i
> CCOc1ccc(NC(=O)N2CCN(c3nnc(C)c4c(C)n(-c5ccccc5)nc34)CC2)cc1
 : -15% | -14%
> COc1ccc(S(=O)(=O)N2CCNCC2)cc1
 : -5% | i
> COC(=O)c1ccc(C(=O)OC)c(NC(=O)c2cnn3c(C(F)F)cc(-c4ccccc4)nc23)c1
 : -7% | 0%
> COC1=CC(=O)OC(c2ccc(C#N)cc2)C1 (stereo not given)
 : 9% | i
> N#Cc1c(SCC(N)=O)nc2c(c1-c1ccc(O)cc1)CCCC2
 : -14% | -14%
> O=C(O)CN1C(=O)SC(Nc2ccccc2C(=O)O)C1=O (stereo not given)
 : -10% | -17%[1.46 µM]
> O=C(COc1cccc(Br)c1)N/N=C1\CCCc2ccccc21
 : -11% | i
> O=S(=O)(N/N=C\c1cn(-c2ccccc2)nc1-c1ccccc1)c1ccccc1
 : -19% | -6%
> Cc1ccc(C(=O)NCC(=O)Nc2ccccc2C(F)(F)F)cc1
 : 3% | i
> Cc1cc(Oc2ccccc2F)nc(NCc2ccccc2)n1
 : -18% | -25%
> CCc1ccc(NC(=O)CSc2nnc(-c3cccs3)n2CC)cc1
 : u | x
> O=C(O)C(Cc1ccccc1)Nc1ccc([N+](=O)[O-])cc1[N+](=O)[O-] (stereo not given)
 : -14% | -8%
> CCC(=O)N1CCc2cc(S(=O)(=O)NC(Cc3ccccc3)C(=O)Nc3ccc(C)cc3)ccc21 (stereo not given)
 : -11% | -10%
> O=C(NCc1ccncc1)c1cnn(-c2nccc(-c3cc4ccccc4o3)n2)c1C1CC1
 : -11% | -17%
> CC1CCCN(C(=O)CSCC(=O)N=c2sc3ccccc3n2C)C1 (stereo not given)
 : -15% | x
> CCNC(=O)c1ccccc1-c1nc(-c2ccccc2Cl)no1
 : -15% | -15%
> N#CCC(=O)NCCCOC(=O)Nc1ccc(Cl)c(Cl)c1
 : -15% | -2%
> Cn1nnnc1SCc1cn2cccnc2n1
 : -14% | x
> CCN1CCN(c2cc(C)c3cc(NC(=S)N4CCN(c5ccccc5F)CC4)ccc3n2)CC1
 : -14% | -12%
> COc1ccc(-n2c(SCC(=O)O)nnc2-c2ccc(NC(=O)c3ccccc3)cc2)cc1
 : -11% | -1%
> Cc1ccccc1-n1c(C)nnc1SCC(=O)N1CCc2ccccc2C1
 : -14% | -23%
> Cc1ccc(C(=O)N/C(=C\c2ccc(-c3ccccc3[N+](=O)[O-])o2)C(=O)NCCCN2CCOCC2)cc1
 : -13% | u
> O=C(COc1ccccc1[N+](=O)[O-])NCc1cccnc1
 : -12% | -4%
> Cc1c(C(=O)O)cccc1-c1ccc(/C=N/Nc2ccc(Br)cc2)o1
 : -21% | -26%
> CCOc1ccc(NC(=O)c2ccc(N)cc2)cc1
 : 2% | 9%
> Cn1c(SCc2nc3ccccc3[nH]2)nnc1-c1cccs1
 : -6% | -6%
> CCOC(=O)C1=CCN(S(=O)(=O)c2ccccc2Cl)C1c1ccc(Cl)c(Cl)c1 (stereo not given)
 : 6% | 18%
> CCC1Oc2ccccc2N(CC(=O)NC2CC2)C1=O (stereo not given)
 : -9% | i
> CCCCn1c(N)c(N(CCOC)C(=O)c2ccc(Cl)c(S(=O)(=O)N3CCCCC3)c2)c(=O)[nH]c1=O
 : -3% | -18%
> Cc1c(Cl)cnc(NC(=O)COC(=O)Cc2coc3ccc4ccccc4c23)c1Cl
 : -1% | -11%
> Cc1ccccc1OCC(=O)N1CCN(C(=O)COc2ccccc2C)CC1
 : 0% | i
> CCCN1C(=O)/C(=C/c2c(N3CCNC(=O)C3CC(=O)OCC)nc3c(C)cccn3c2=O)SC1=S (stereo not given)
 : 136%[activator] | -6%
> CCOc1ccc(NC(=O)CCS(=O)(=O)c2ccc3c(c2)CCCN3C(C)=O)cc1
 : -15% | -17%
> O=C(Cn1cnc([N+](=O)[O-])c1)NCCc1ccccc1
 : -9% | -15%
> O=C(CSc1ccc(-c2nc3ccccc3[nH]2)cn1)Nc1ccc(S(=O)(=O)NC2CC2)cc1
 : -7% | -11%
> COC(=O)c1c(C)cc(O)c(C=O)c1O
 : -7% | -16%
> O=C(CSc1nc(-c2cccs2)cc(C(F)(F)F)n1)NCc1ccco1
 : -19% | -24%
> O=c1c(Oc2ccccc2)coc2cc(O)cc(O)c12
 : 9% | -6%
> C[C@@H]1COC(=O)[C@@H](Cc2ccc(F)cc2)C/C=C\C[C@@H](CC(=O)N(CCO)Cc2ccccc2)C(=O)N1
 : -16% | -20%
> CC(=O)N1CCSc2ccc(S(=O)(=O)Nc3cccc(C)c3)cc21
 : 11%[7.34 µM] | 2%[7.34 µM]
> COc1cccc(/C=C/C(=C2/C(=O)N(c3ccccc3)N=C2C)c2ccc(C)cc2)c1OC
 : -4% | i
> Cc1nc(CSc2nnc(Nc3cccc(C)c3C)s2)cs1
 : -9% | i
> COc1cc(C(=O)NC(C)c2ccc3ccccc3c2)cc(Cl)c1O (stereo not given)
 : -3% | -8%
> COc1ccc(OCc2nc(C#N)c(NCc3ccccc3Cl)o2)cc1
 : -2% | -9%
> CC(C)CC(=O)Nc1ccc(C(=O)NNC(=O)C(c2ccccc2)c2ccccc2)cc1
 : -25% | i
> O=C(NCCc1ccccc1)c1nn(-c2ccc(F)cc2)nc1CO
 : -10% | -13%
> COc1ccc(NC(=O)c2oc3ccc(S(=O)(=O)N4CCOCC4)cc3c2C)cc1
 : -6% | -4%
> Cc1c(NS(=O)(=O)c2ccc3nc(COc4ccccc4Cl)[nH]c3c2)c(=O)n(-c2ccccc2)n1C
 : -12% | -5%
> CCCc1ccc(OCc2nc(-c3ccc(NC(=O)c4cccs4)cc3)no2)cc1
 : -1% | -5%

# Next compounds follow:
# The line under a structure holds: Vaccinia Venus | VACV mCherry inh
> CCc1nc(SCC(=O)NNC(=O)c2ccc(C)cc2)c2ccccc2n1
 : -13% | -2%
> Cc1ccc(NC(=O)c2ccccc2)cc1C
 : -8% | i
> Nc1nnc(SCC(=O)OCC(=O)Nc2ccc(Br)cc2)s1
 : -10% | i
> CCOC(=O)C1CCCN(C(=O)C2CC(=O)N(c3ccc(C)cc3)C2)C1 (stereo not given)
 : -14% | -21%
> O=C1NC(=O)C(Cc2ccccc2)(C2CCN(Cc3cccn3-c3cccnc3)CC2)N1 (stereo not given)
 : -10% | -2%
> CCN(CC)C(=O)CSc1nnc(NC(=O)CCc2ccccc2)s1
 : -8% | i
> Cc1cc(C)nc(Nc2ccccc2F)n1
 : -3% | -8%
> Nc1nnnn1/N=C/c1ccc(Cl)cc1
 : 9% | -3%
> O=C(Nc1ccc(CN2CCCCC2)cc1)c1cccc(Br)c1
 : -3% | -8%
> Cc1ccc(NC(=O)CSc2nnc(-c3ccccn3)n2N)c(Br)c1
 : -4% | i
> Oc1ccc2c(c1)OCC1c3cc4c(cc3OC21)OCO4 (stereo not given)
 : -6% | -10%
> Cc1cccn2c(=O)c(/C=C(\C#N)C(N)=O)c(N3CCN(Cc4ccc5c(c4)OCO5)CC3)nc12
 : u | -11%
> CCn1cc(C(=O)NCCN(C)C)c(=O)c2cc(F)c(N3CCN(C)CC3)cc21
 : -23% | -22%
> O=C1CCCN1CC(CN1CCOCC1)Sc1nnnn1-c1ccccc1 (stereo not given)
 : 18%&-11% | -9%
> O=S(=O)(Nc1cccc(-c2ccc(N3CCCCC3)nn2)c1)c1ccc(Cl)s1
 : 1% | -12%
> CCCCN(CC)C(=O)Cc1c(C(=O)O)[nH]c2ccc(Cl)cc12
 : -15% | x
> COc1ccc(NC(=O)CN(C)C(=O)c2ccc(N3CCCCCC3)c([N+](=O)[O-])c2)cc1
 : u | -19%
> CC(NC(=O)/C(C#N)=C/c1ccco1)c1ccccc1 (stereo not given)
 : -9% | i
> CCN1CCCC1CNCc1cccc(OC)c1OCc1ccc(F)cc1 (stereo not given)
 : -1% | -17%
> O=C(Cn1cc(S(=O)(=O)Cc2ccccc2)c2ccccc21)Nc1ccccc1
 : -9% | -14%
> Cc1c(NC(=O)CSCc2c(F)cccc2Cl)c(=O)n(-c2ccccc2)n1C
 : 8% | 0%
> CC(=O)NC(CCC(=O)O)C(=O)O (stereo not given)
 : -8%&-11% | -12%&-1%
> Cc1ccc(C)c(S(=O)(=O)Nc2ccc(S(=O)(=O)Nc3onc(C)c3C)cc2)c1
 : 5% | -8%
> Cc1nn(-c2ccccc2)c2c1C(c1ccc(F)cc1)C(C#N)=C(N)O2 (stereo not given)
 : -26% | -1%
> O=S(=O)(c1ccccc1)N1CCN=C1SCc1ccccc1Cl
 : -3% | -4%
> CC(Oc1ccccc1F)C(=O)NNC(=O)CCNC(=O)c1ccccc1Cl (stereo not given)
 : -2% | i
> CN(Cc1ccccc1F)c1cc2c(c3c1ccn3C)C1CCC2O1 (stereo not given)
 : -6% | 10%
> Cc1ccc(CNCc2cccn2-c2nnc(N3CCCC3)s2)cc1
 : -8% | -6%
> O=C(CSc1nnc(-c2ccccc2O)o1)N1CCCCC1
 : -9% | -18%
> CC[C@H](C)[C@H](NC(=O)[C@H](CCCN=C(N)N)NC(=O)[C@H](CCCN=C(N)N)NC(=O)[C@H](CC(C)C)NC(=O)[C@H](Cc1ccccc1)NC(=O)CNC(=O)CNC(=O)[C@@H](N)Cc1ccc(O)cc1)C(=O)N[C@@H](CCCN=C(N)N)C(=O)N1CCC[C@H]1C(=O)N[C@@H](CCCCN)C(=O)N[C@@H](CC(C)C)C(=O)N[C@@H](CCCCN)C(=O)O
 : -7%[3.33 µM] | -17%[3.33 µM]
> Cc1ccc(CNc2ncnc3sc(C(=O)N4CCCCC4c4cccnc4)c(C)c23)o1 (stereo not given)
 : -11% | -13%
> COc1ccc(CN2CCC(C(=O)NC(C)c3cccc4ccccc34)CC2)cc1 (stereo not given)
 : -12% | i
> CCOC(=O)CSc1nc(-c2ccc(OC)cc2)cc(C(F)(F)F)c1C#N
 : -12% | -9%
> COC(=O)CCN(C(=O)C1C2CC3CC(C2)CC1C3)c1ccccn1 (stereo not given)
 : -3% | -8%
> Cc1ccc(Cn2cccc(C(=O)Nc3nc4ccc(C)cc4s3)c2=O)cc1
 : u | u
> COc1ccc(C2C3C=CC(C3)C2C(=O)O)cc1 (stereo not given)
 : -16% | i
